HSD17B inh: qHTS Assay for Inhibitors of HSD17B4, hydroxysteroid (17-beta) dehydrogenase 4 | hit rate 7.6% among 75,000 | Potency, µM (series often up to 57.1 µM), for the others: at the highest dose activity change, negative = inhibition, actives largely listed as inhibitors | recombinant HSD17B10, NADH fluorescence kinetic; many of its hits are not listed in these tables | AID 893, 2007; active = well fitted inhibition curve with a large enough effect; inconclusive = small, poorly fitted or top-dose-only effect; inactive = no such curve, though single readings can be large or run the other way;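 also: the protocol describes HADH2 (HSD17B10) and not the HSD17B4 of the title; nearly all actives have a fitted effect of over 70% in size; most hits overshoot -100% by far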
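His-tagged E. coli-expressed HADH2 at 20 nM in 100 mM Tris-HCl pH 9.0 with 0.01 % Tween-20, preincubated 15 min with compound at room temperature. Reaction with 1 mM NAD+ and 90 uM beta-hydroxybutyryl coenzyme A; NADH fluorescence (360/450 nm) read kinetically over 4 min, last minus first point.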
* = called active by the depositor; ? = inconclusive; [ ] = another dose, or the depositor's remark. % is scaled to controls: 0 for no effect and ±100 for the full control effect; potency is read from the fitted curve at half-maximal effect. A portion of the library; rates above refer to the full screens.

compound,HSD17B inh
N#CCSc1nnc(COc2cccc3ccccc23)n1-c1ccccc1,?
Cn1c(-c2ccc(N)cc2)nc2ccccc21,20µM*
C[C@@H]1CCC2[C@](C)(CO)C(O)CC[C@@]2(C)[C@@]12CC[C@](CO)(CCO)O2 (stereo partly drawn),-3%
O=C(C1CCCN(S(=O)(=O)c2ccc(Cl)cc2)C1)N(Cc1cccs1)C1CC1 (stereo not drawn),4%
COCCCNC(=O)C1CCC(=O)N1Cc1ccccc1Cl (stereo not drawn),9%
CN1CCN(c2ncc3ncc(=O)n(Cc4ccc(F)cc4)c3n2)CC1,25µM*
CN(C(=O)c1ccc(Cl)cc1)C1=CCCCC1CCC#N (stereo not drawn),-2%
CCC(C)(C)NC(=O)CN(C(=O)c1snc(C(N)=O)c1N)c1ccc2c(c1)OCCO2,-3%
CC1(C)Cc2c(C#N)c(N)n(-c3ccccc3)c(=O)c2CO1,5%
CCN=C1SC(C(=O)Nc2cccc(OCC)c2)CC(=O)N1CC (stereo not drawn),2%
Cc1cc(=O)[nH]c2n[nH]c(-c3ccccc3)c12,25µM*
COc1cc(C(=O)Nc2c(C)cc(C)cc2C)c(-n2cnnn2)cc1OC,-4%
Cc1cc(OCC(=O)O)c2ccccc2n1,4%
CCOC(=O)C[C@@H](CC(C)=O)C(=O)OCC,2%[11.4 µM]
CCOc1ccc(-c2nnn(CC(=O)N3CCN(c4ccc(F)cc4)CC3)n2)cc1OCC,-3%
COC(=O)C1=C2SC(C)C(=O)N2C(N)=C(C#N)C1c1ccc(OC)c(OC)c1 (stereo not drawn),4%
Cc1ccc(C)c(N2CCN(C(=O)CCc3nc4ccccc4[nH]3)CC2)c1,-6%
C=CCc1ccccc1OCC(O)CN1CCN(C(=O)OCC)CC1 (stereo not drawn),6%
CCOCC(=O)Nc1nnc(COCC)s1,-8%
O=C(Nc1ccccc1C(=O)O)c1ccc(Cl)c(S(=O)(=O)N2CCOCC2)c1,2%
CCc1nnc(NC(=O)CSc2nnc(COc3ccccc3C)o2)s1,?
CCOc1ccc(S(=O)(=O)N2CCC(C(N)=O)CC2)c2ccccc12,11%
COc1ccccc1CNC(=O)CNC(=O)Cn1cnc2ccccc2c1=O,-7%
CCOc1ccccc1N1CCN(Cc2ccc(OC)c(OC)c2)CC1,-5%
CC(=O)Nc1ccc2oc(-c3cc(F)c(F)cc3Cl)nc2c1,3.2µM*
Cc1cc(C)n(CCOC(=O)c2sc3ccccc3c2Cl)n1,-7%
CC(C)CN(C(=O)COC(=O)c1ccc2c(c1)NC(=O)CS2)C1CCS(=O)(=O)C1 (stereo not drawn),-13%
CCCC(=O)Nc1ccc(C(=O)n2nnc3ccccc32)cc1,-4%
CCc1nnc(NC(=O)Cn2nnc(-c3ccccc3F)n2)s1,4%
O=S(=O)(c1cccs1)N1CCC(Cc2ccccc2)CC1,-4%
CC(=O)c1cccc(NC(=O)C2CCCCC2)c1,-2%
Cn1cnc([N+](=O)[O-])c1[Se]c1nc(N)nc2c1ncn2[C@@H]1O[C@@H](CO)[C@H](O)[C@@H]1O,13%[11.4 µM]
O=C(C1CC1)N1CCc2cc(Br)cc(S(=O)(=O)NCc3ccc4c(c3)OCO4)c21,11%
Cc1ccc2[nH]c(=O)c(CN(Cc3ccco3)C(=O)c3ccncc3)cc2c1,?
CCCCCCN1CC(O)=C(c2nc3ccccc3[nH]2)C1=N,-9%
C[C@@H](C(=O)Nc1ccc2ccccc2c1)[C@@H]1C[C@@]1(C)[C@@H](NS(=O)(=O)c1ccc2ccccc2c1)c1ccccc1,-26%
CC(C)(C)C(=O)OCCn1c(=O)c2cc3c(=O)n(CCOC(=O)C(C)(C)C)c(=O)c3cc2c1=O,-5%
COC(=O)c1ccc(C(=O)OC)c(NC(=O)COc2ccccc2OC)c1,?
CCn1c(NCCc2ccc(OC)c(OC)c2)nc2c1c(=O)n(C)c(=O)n2C,7%
Cn1c(-c2ccc(F)cc2)cnc1SCC(=O)NCc1ccco1,-16%
O=C(Nc1ccc(Cl)cc1)c1ccsn1,-3%
Cn1c(=O)n(Cc2ccccc2)c(=O)c2c1nc1n2CCCN1Cc1ccccc1,3%
O=C(Nc1ccc(N2CCN(C(=O)c3ccccc3)CC2)c(Cl)c1)c1ccco1,1%
CCC/C(O)=C1\C(=O)CC(C)(C)CC1=NCCO,-1%
COc1ccc(Cl)c(Cn2c(NCC(C)O)nc3c2c(=O)n(C)c(=O)n3C)c1 (stereo not drawn),11%
COc1cc(-n2c(=O)c3ccccc3n(Cc3cccnc3)c2=O)cc(OC)c1OC,7%
COCCN(CCOC)S(=O)(=O)c1ccc(C(=O)Nc2nnc(C)o2)cc1,-3%
CCCc1nnc(NC(=O)Cn2c(=O)sc3ccccc32)s1,-9%
CCCS(=O)(=O)N1CCN(c2ccccc2F)CC1,6%
O=C(Nc1cccc2nsnc12)C1CC(=O)N(c2ccccc2)C1 (stereo not drawn),25µM*
CCOCCn1c(CN2CCOCC2)nc2c1c(=O)[nH]c(=O)n2C,?
Cc1ccc(-c2nnc(N3CCN(c4ccccn4)CC3)c3ccccc23)cc1,-30%
CCc1ccc(C2C(C(C)=O)=C(C(=O)OC)Nc3nnnn32)cc1 (stereo not drawn),-3%
CCOc1ccc(-c2cc(C(=O)N3CCN(c4ccccn4)CC3)c3ccccc3n2)cc1,-141%
CCC(=O)Nc1sc2c(c1C(N)=O)CCC2,-1%
C=CCn1c(=N)n(CC(=O)OCC)c2ccccc21,1%
COc1ccc(CCN2C(=O)CC(NCc3ccc4c(c3)OCO4)C2=O)cc1OC (stereo not drawn),-3%
C=C(C)COc1ccc2c3c(c(=O)oc2c1OCC(=C)C)CCC3,?
CCOC(=O)c1ccc(CSc2nncn2N)o1,3%
O=C(NC1CCCCC1)N1CCC(c2nc3ccc(Cl)cc3[nH]2)CC1,-5%

Remaining list, next part:
compound,HSD17B inh
Cc1cc(S(=O)(=O)Nc2ccccc2C(=O)O)ccc1F,?
COc1ccc(C(=O)NC(C)c2nc3ccccc3n2C)cc1OC (stereo not drawn),3%
CN(C)CCN1C(=O)C(=O)/C(=C(/O)c2ccc(OCc3ccccc3)cc2)C1c1ccncc1 (stereo not drawn),-1%
Cc1cc(Nc2cc(C(=O)O)ccc2C)n2ncnc2n1,5%
COc1ccc(-n2c(Cc3cccn3C)nnc2SCC(=O)Nc2ccc(C)cc2)cc1,-9%
COc1ccc(C(=O)N2CCC[C@@]3(CCN(Cc4ccccc4)C3)C2)cc1,8%
CS(=O)(=O)N1CCN(c2ccc(NC(=O)c3ccc(Br)o3)cc2)CC1,7%
Nn1cnn(Cc2ccccc2)c1=S,-23%
COC(=O)c1cc(OC)c(OC)cc1NC(=O)Nc1ccccc1OC,20µM*
Cc1cc(C)c2nc(N3CCCC3)c(C#N)cc2c1,32µM*
Cc1cnnc2c1-c1no[n+]([O-])c1CC2,5%
COc1ccc(NS(=O)(=O)c2c(C)n(C)c(=O)n(C)c2=O)cc1OC,5%
CCNc1nc(SCc2ccccc2)nc(N2CCOCC2)n1,-14%
CCn1nc(NC(=O)c2ccco2)c2cc3ccc(C)cc3nc21,20µM*
O=C1CC(c2cccc(Cl)c2)Cc2nc(N3CCOCC3)ncc21 (stereo not drawn),-7%
C=CCn1cc(C(=O)NCCCOC)c(=O)c2cc(S(=O)(=O)N3CCC(C)CC3)ccc21,?
CC(=O)OCc1ccc2c(c1)OCO2,1%
Cc1cc(=O)c2c(O)cc(O)c(C)c2o1,1%
O=C(CN1CCN(Cc2ccc(F)cc2)C1=O)NCc1cccs1,0%
[N-]=[N+]=Nc1nc2c(N)ncnc2n1C1OC(CO)C(O)C1O (stereo not drawn),-1%
O=C(Oc1cccc2cccnc12)c1ccc2c(c1)OCCO2,-2%
O[C@@H]([C@H](O)[C@@H](O)CBr)[C@@H](O)CBr,0%
COc1ccc(C(=O)Nn2cnc3scc(-c4cccs4)c3c2=O)c(O)c1,-25%
COc1ccc(C(=O)N2CCN(C(=O)c3cc(OC)c(OC)c(OC)c3)CC2)cc1,9%
O=C(c1cccc(F)c1)N1CCC[C@@]2(CCN(c3ccccn3)C2)C1,?
CCOc1cc2[nH]c(=S)n(CCCOC)c(=O)c2cc1OCC,-9%
Cc1c(C(=O)NCc2ccccc2)oc2c1C(=O)CCC2,-13%
COc1ccc(Cl)cc1N(CC(=O)N1CCC(C)CC1)S(C)(=O)=O,-6%
C=CCc1cccc(C2NC(C(=O)O)CCC2C)c1 (stereo not drawn),1%[11.4 µM]
Cc1ccc(NC(=O)c2ccccc2C(=O)O)cc1C,4%[11.4 µM]
CC1(C)OC(=O)C(=CNC(Cc2c[nH]c3ccccc23)C(=O)O)C(=O)O1 (stereo not drawn),-6%
Cc1ccccc1-c1nc(CN2CCC(C(=O)NCc3cccnc3)CC2)c(C)o1,3%
COc1cc(NS(=O)(=O)c2ccc(NC(=O)NC3CCCCC3)cc2)nc(OC)n1,-1%
O=C(O)c1cc(S(=O)(=O)Nc2ccccc2C(=O)O)ccc1O,-16%
COc1ccc(-c2nc3ccccc3c(=O)n2CCN2CCOCC2)cc1,7%
CCn1ncc(C(=O)Nc2ccc(S(=O)(=O)N3CCCC3)cc2)c1C,3%
COCCCn1c(-c2ccc(OC)cc2)nc2nc3ccccc3nc21,32µM*
Cc1cc(C)nc(N(C#N)S(=O)(=O)c2ccccc2)n1,7%
COc1ccc(C2CC(C(F)(F)F)n3nc(C(=O)NCc4c(C)nn(C)c4C)c(Cl)c3N2)cc1 (stereo not drawn),0%
O=C(c1ccc2c(c1)OCO2)N1CCNc2ccccc2C1,2%
O=S(=O)(c1ccccc1)N1CCC2(CCCN(Cc3nccs3)C2)CC1,-1%
COCCNc1ccnc(-c2ccccc2C)n1,-27%
O=C(CCCNS(=O)(=O)c1cccc2nsnc12)NCc1ccccc1,-4%
COC(=O)c1ccc(NC(=O)C2CC(=O)N(c3cc(C)ccc3C)C2)cc1 (stereo not drawn),-1%
O=C(c1csnn1)N1CCC[C@@]2(CCN(c3ncccn3)C2)C1,-4%

In the list so far, these contain a cyano group.
compound,HSD17B inh
N#CCSc1nnc(COc2cccc3ccccc23)n1-c1ccccc1,?
CN(C(=O)c1ccc(Cl)cc1)C1=CCCCC1CCC#N (stereo not drawn),-2%
CC1(C)Cc2c(C#N)c(N)n(-c3ccccc3)c(=O)c2CO1,5%
COC(=O)C1=C2SC(C)C(=O)N2C(N)=C(C#N)C1c1ccc(OC)c(OC)c1 (stereo not drawn),4%
Cc1cc(C)c2nc(N3CCCC3)c(C#N)cc2c1,32µM*
Cc1cc(C)nc(N(C#N)S(=O)(=O)c2ccccc2)n1,7%

Additional records:
compound,HSD17B inh
COc1cc(NC(=O)Cn2nnc(-c3ccccc3N)n2)cc(OC)c1,7%
Oc1ccccc1-c1nc(NCC2CCCO2)c2ccccc2n1 (stereo not drawn),-14%
COc1cc(N/C(=N/S(=O)(=O)c2ccccc2)c2ccccc2)ncn1,10%
CCOCCn1c(CCCO)nc2ccccc21,2%
CCOC(=O)c1c(NC(=O)c2nn(CC)cc2Br)c(C#N)nn1-c1ccccc1,-29%
Cn1c(SCc2ccccc2Cl)nnc1-c1cnccn1,25µM*
O=S(=O)(/N=C(/Nc1cc(N2CCOCC2)ncn1)c1ccc(F)cc1)c1ccccc1,8%
O=C(CC1SC(=Nc2ccccc2)N(CCCO)C1=O)Nc1ccc(Cl)cc1 (stereo not drawn),-4%
COc1cc(C2C(C(=O)c3ccco3)=C(O)C(=O)N2c2cc(C)on2)cc(Br)c1O (stereo not drawn),-8%
COc1ccc(C2=CSC3=NCCN23)cc1F,-28%
COc1ccc(C)cc1NC(=O)CN(c1ccccc1F)S(C)(=O)=O,4%
COCCn1cnc2c1c(=O)n(CC(=O)c1ccc3c(c1)OCCO3)c(=O)n2Cc1ccccc1,-11%
COC(=O)c1ccc(N2C(=O)CC(N(C)Cc3ccccc3)C2=O)cc1 (stereo not drawn),2%
CCCCn1c(CNC(C)=O)nc2ccccc21,3%
Cc1cc(S(=O)(=O)N2CCCC2)c(C)s1,-1%
Cc1nc2cc(NC(=O)N3CC4(C)CC3CC(C)(C)C4)ccc2n1C (stereo not drawn),-6%
Cc1sc(NC(=O)c2ccco2)c(CN2CCCCC2)c1C,-6%
Cc1cc(C)c(S(=O)(=O)NCC2CCC(C(=O)NCCCN3CCOCC3)CC2)c(C)c1 (stereo not drawn),3%
Clc1ccc(-c2nnc(-c3ccc(Br)o3)o2)c(Cl)c1,32µM*
O=C(Cc1ccccc1)Nc1c(C(=O)N2CCOCC2)cnn1-c1ccccc1,19%
Cc1ccc(-c2nc(CSCC(=O)N3CCCC3)c(C)o2)cc1,?
CNC(=O)CCn1nc(-c2ccc(Cl)cc2)c2ccccc2c1=O,3%
O=C(NCc1ccccn1)C1CCCN(S(=O)(=O)c2ccc(Br)cc2)C1 (stereo not drawn),-2%

Source: PubChem BioAssay (National Center for Advancing Translational Sciences (NCATS))
